Ecoli growth = E. coli growth inhibition; OD600 absorbance (concentration not given with the values); 0.21% of 330,000 active; AID 1053175; Escherichia coli growth, OD600, 23 h; stronger effect = lower value;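 active means OD600 absorbance below the run mean of sample wells minus 3.6 SD, in any replicate, cut at about 0.56 in these data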;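 further: stock transfer was 300 nL into about 60 µL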
Starred values were filed as active, the others as inactive; & = joins results of further samples. Not all compounds are listed; rates above refer to the full screens.

SMILES	Ecoli growth
CCCC(O)=C1C(=O)CCCC1=NCCCCCC(=O)O	0.71
Cc1ccc(C2C3C(=O)N(c4ccccc4)C(=O)C3[C@]3(C)C(=O)N(CC4CC4)CC(=O)N23)o1 (some centres undefined)	0.698
C=CC1c2ccccc2N(S(=O)(=O)c2ccc(C)cc2)C(c2ccc(C(=O)OC)cc2)C1(C#N)C#N (centres undefined)	0.699
O=c1oc(C2(O)CCCCC2)cc2ccc(C=Cc3ccc(F)cc3)cc12	0.667
CCC(C)C(C(=O)N1CCN(C(=O)OC(C)(C)C)CC1)n1cc(CCC(=O)O)nn1 (centres undefined)	0.692
CSC(=C[N+](=O)[O-])Nc1ccc(Cl)cc1	0.704
COC(=O)C1=C(C(=O)OC)C2N(C)c3ccc(OC)cc3[C@@]23CC(C(=O)OC)N(C(=O)c2cc(C)oc2C)C3=N1 (some centres undefined)	0.698
O=[N+]([O-])c1ccc(CSc2ncnc3c2ncn3C2OC(CO)C(O)C2O)cc1 (centres undefined)	0.681
Cc1noc(NS(=O)(=O)c2ccc(NC=CC(=O)c3ccccc3)cc2)c1C	0.7
O=C(C=CNc1ccc(F)cc1)c1ccco1	0.718
CC(=O)OC1C2C(CC(C)C3CCC(=O)[C@]31C)OC(=O)C2C (some centres undefined)	0.666
Cc1noc(C)c1NC(=O)N(C)CC1Oc2ccc(NC(=O)Cc3ccccc3)cc2C(=O)N(C(C)CO)CC1C (centres undefined)	0.638
COc1ccc(C(=O)N2CC3(CC(c4cccc(NC(=O)COc5ccc(Cl)cc5)c4)=NO3)CC2C(N)=O)cc1 (centres undefined)	0.693
COC(=O)C1=C(C(=O)OC)C2N(Cc3ccccc3)c3ccccc3[C@@]23CC(C(=O)OC)N(C(=O)c2cc(C)oc2C)C3=N1 (some centres undefined)	0.729
CC(C(=O)CC(=O)OC(C)(C)C)C(O)c1c(F)cccc1Cl (centres undefined)	0.678
O=C(C1CC=CC2CCN(C3CC3)C(=O)C21)N1CCN(c2ccccc2)CC1 (centres undefined)	0.658
COC(=O)C1C[C@@]2(O)C(O)C(O)C(O)CC2N1Cc1cc(OC)cc(OC)c1 (some centres undefined)	0.677&0.708
CC1COC(=O)C(NC(=O)OCC2c3ccccc3-c3ccccc32)CC=CCC(CC(=O)N(CCO)Cc2ccccc2)C(=O)N1 (centres undefined)	0.677
O=C(O)C(Cc1ccccc1)NC(=O)N1CCOCC1 (centres undefined)	0.68
CC(NCc1ccccc1)=C(C#N)C(=O)NCc1ccccc1	0.664

16 of these compounds in another layout.
canonical_smiles | Ecoli growth
O=c1oc(C2(O)CCCCC2)cc2ccc(C=Cc3ccc(F)cc3)cc12 | 0.667
CCC(C)C(C(=O)N1CCN(C(=O)OC(C)(C)C)CC1)n1cc(CCC(=O)O)nn1 (centres undefined) | 0.692
CSC(=C[N+](=O)[O-])Nc1ccc(Cl)cc1 | 0.704
COC(=O)C1=C(C(=O)OC)C2N(C)c3ccc(OC)cc3[C@@]23CC(C(=O)OC)N(C(=O)c2cc(C)oc2C)C3=N1 (some centres undefined) | 0.698
O=[N+]([O-])c1ccc(CSc2ncnc3c2ncn3C2OC(CO)C(O)C2O)cc1 (centres undefined) | 0.681
Cc1noc(NS(=O)(=O)c2ccc(NC=CC(=O)c3ccccc3)cc2)c1C | 0.7
O=C(C=CNc1ccc(F)cc1)c1ccco1 | 0.718
CC(=O)OC1C2C(CC(C)C3CCC(=O)[C@]31C)OC(=O)C2C (some centres undefined) | 0.666
Cc1noc(C)c1NC(=O)N(C)CC1Oc2ccc(NC(=O)Cc3ccccc3)cc2C(=O)N(C(C)CO)CC1C (centres undefined) | 0.638
COc1ccc(C(=O)N2CC3(CC(c4cccc(NC(=O)COc5ccc(Cl)cc5)c4)=NO3)CC2C(N)=O)cc1 (centres undefined) | 0.693
COC(=O)C1=C(C(=O)OC)C2N(Cc3ccccc3)c3ccccc3[C@@]23CC(C(=O)OC)N(C(=O)c2cc(C)oc2C)C3=N1 (some centres undefined) | 0.729
CC(C(=O)CC(=O)OC(C)(C)C)C(O)c1c(F)cccc1Cl (centres undefined) | 0.678
O=C(C1CC=CC2CCN(C3CC3)C(=O)C21)N1CCN(c2ccccc2)CC1 (centres undefined) | 0.658
COC(=O)C1C[C@@]2(O)C(O)C(O)C(O)CC2N1Cc1cc(OC)cc(OC)c1 (some centres undefined) | 0.677&0.708
CC1COC(=O)C(NC(=O)OCC2c3ccccc3-c3ccccc32)CC=CCC(CC(=O)N(CCO)Cc2ccccc2)C(=O)N1 (centres undefined) | 0.677
O=C(O)C(Cc1ccccc1)NC(=O)N1CCOCC1 (centres undefined) | 0.68

(continued)
SMILES	Ecoli growth
Cc1cccn2c(=O)c(C=C(C#N)C(=O)NC3CCS(=O)(=O)C3)c(N3CCC(C)CC3)nc12 (centres undefined)	0.68
CCC1(CC)C(=O)C2=C3C(CC(C(=O)OC)=CC(C(=O)OC)C31)n1c(=O)n(C)c(=O)n1C2C (centres undefined)	0.692
CCC(C)C(N)c1cn(C(CCCCN)C(=O)N2CCNCC2)nn1 (centres undefined)	0.699
O=C(NC1CCC(=O)N(CCC(Oc2ccccc2)c2ccccc2)CC1)OCc1ccccc1 (centres undefined)	0.698
CCC(C)C(NC(=O)Nc1cccc(Cl)c1)C(=O)O (centres undefined)	0.686
O=C(NC1CCS(=O)(=O)C1)C(=Cc1ccco1)NC(=O)c1ccccc1 (centres undefined)	0.708
CC=C(C)C(=O)Nc1cccc(C2=NOC3(C2)CC(C(N)=O)N(C(=O)c2ccccc2C(=O)c2ccccc2)C3)c1 (centres undefined)	0.723
O=C(NC(Cc1ccccc1)C(=O)OCc1ccccc1)c1nc[nH]c1C(=O)NC(Cc1ccccc1)C(=O)OCc1ccccc1 (centres undefined)	0.748
C#CCOCCOCCOCCNc1nc(N2CCN(C(=O)Cn3cc(CC(C)O)nn3)CC2)nc(N2CCN(C(=O)C(CCCCN)n3cc(CCCC)nn3)CC2)n1 (centres undefined)	0.709
C[C@@]12CCC=CC1C(c1ccc(C(F)(F)F)cc1)N(Cc1ccccc1)C2=O (some centres undefined)	0.703
COCCN1C(=O)NC(c2cccs2)C(C(C)=O)=C1C (centres undefined)	0.693
CCCNC(=O)OCC1OC(CCON=CC(NS(=O)(=O)c2ccc(C)cc2)C(C)C=CCC(=O)OC)C=CC1Oc1ccc(OC)cc1 (centres undefined)	0.696
NC(=O)CC1NC(=O)c2cc([N+](=O)[O-])cc(I)c2OCCC(C(N)=O)NC(=O)C2CCCN2C1=O (centres undefined)	0.672
C#CCOCCOCCOCCNc1nc(N2CCN(C(=O)C(CCC(=O)O)n3cc(C(N)CO)nn3)CC2)nc(N2CCN(C(=O)C(C(C)CC)n3cc(C(N)Cc4ccc(O)cc4)nn3)CC2)n1 (centres undefined)	0.692
O=C1C(=Cc2ccncc2)CCc2ccccc21	0.679
CC(=O)SC1CC2=CC(=O)CC[C@]2(C)C2CC[C@@]3(C)C(CC[C@@]34CCC(=O)O4)C12 (some centres undefined)	0.726
C[C@]12CCC3c4ccc(O)cc4CCC3C1CCC2OC(=O)CCC(=O)O (some centres undefined)	0.664
COc1ccc2c(c1)OCC1C2N2C(=O)CN(Cc3ccc(Cl)cc3)C(=O)[C@@]2(C)C1c1ccccc1 (some centres undefined)	0.713
O=C(O)C1=CC(c2ccc(C(F)(F)F)cc2)CC(OCCCCO)O1 (centres undefined)	0.665&0.719
O=C(NCc1ccccc1)C1=CC(c2ccccc2)CC(OCCCCO)O1 (centres undefined)	0.622
COc1ccc(C2CC(=O)C=C(c3cc(C)ccc3OC)C2)cc1 (centres undefined)	0.645
COC(=O)C1=C(C(=O)OC)[C@]2(C3CC=CCNC(Cc4ccccc4)C(=O)N3Cc3ccccc3)C=CC1O2 (some centres undefined)	0.715&0.736
COc1cc2nc(N3CCN(C(=O)OCc4ccccc4)C(C(=O)NC(C)(C)C)C3)nc(N)c2cc1OC (centres undefined)	0.701
O=C1OCC2CCCN2C(=O)C(CC(=O)N(CCO)Cc2ccccc2)CC=CCC1Cc1ccc(F)cc1 (centres undefined)	0.686&0.646&0.706&0.703
O=C1C(Cc2ccccc2)NCCCCC(c2ccco2)N1Cc1ccccc1 (centres undefined)	0.649&0.714
COC(=O)C1=CC(C(=O)OC)C2C3=C(C(=O)[C@@]2(C)NC(=O)c2ccccc2)C(C)C(C(=O)OC)=C(C(=O)OC)C3C1 (some centres undefined)	0.711
CC(=O)NC1C(O)C=C(C(=O)O)OC1C(O)C(O)CO (centres undefined)	0.712
CCN1C(=O)NC(c2cccc(C(F)(F)F)c2)C(C(=O)OC)C1C (centres undefined)	0.706&0.716
CC=C(C)C(=O)Nc1cccc(C2=NOC3(C2)CC(C(N)=O)N(C(=O)COc2ccc(Cl)cc2)C3)c1 (centres undefined)	0.694
COc1ccc(S(=O)(=O)N(C)CC2Oc3ccc(NC(=O)Nc4c(C)noc4C)cc3C(=O)N(C(C)CO)CC2C)cc1 (centres undefined)	0.702&0.674
CCN(CC)C(=O)C=Cc1ccccc1	0.648
CC1(C)CC2C3=CCC4[C@@]5(C)CCC(OC6OC(C(=O)O)C(O)C(O)C6O)[C@@](C)(CO)C5CC[C@@]4(C)[C@]3(C)CC(O)[C@@]2(CO)C(O)C1O (some centres undefined)	0.656
CCOC1OC(C(=O)N2CCCCCCC2)=CC(c2ccc3c(c2)OCO3)C1CCCO (centres undefined)	0.703
C#CCOCCOCCOCCNc1nc(N2CCN(C(=O)C(Cc3ccc(O)cc3)n3cc(C(N)CC(C)C)nn3)CC2)nc(N2CCN(C(=O)C(Cc3cc4ccccc4[nH]3)n3cc(C(N)CC(C)C)nn3)CC2)n1 (centres undefined)	0.636
COC(=O)CN1C(=O)C2C(C=Cc3ccccc3)N3C(=O)CN(Cc4ccc(-c5ccccc5)cc4)C(=O)[C@@]3(C)C2C1=O (some centres undefined)	0.684
COc1ccc2c(c1)OCC1C2N2C(=O)c3ccc(F)cc3NC(=O)[C@@]2(C)C1c1ccccc1 (some centres undefined)	0.724
CC(OC(=O)N1CCN(C(c2ccccc2)c2ccccc2)CC1)C1O[C@@]2(C)CCCC1O2 (some centres undefined)	0.722
CCOC1OC(C(N)=O)=CC(c2ccc3c(c2)OCO3)C1CCCO (centres undefined)	0.664
CO[C@@]1(NC(=O)C2SC(=C(C(N)=O)C(=O)O)S2)C(=O)N2C(C(=O)O)=C(CSc3nnnn3C)CSC21 (some centres undefined)	0.061*
CCN(CC)C(=O)c1[nH]cnc1C(=O)NC(C)C(=O)OC(C)(C)C (centres undefined)	0.693
CC(C)CC1COCCS(=O)(=O)N1Cc1ccc(Cl)c(Cl)c1 (centres undefined)	0.627
CS(=O)(=O)Nc1ccc(-c2cc(C=C3SC(N)=NC3=O)c[nH]c2=O)cc1	0.644
COc1ccc(N2C(=O)N3C(c4ccc(Cl)cc4)C4C(=O)N(C5CCCCC5)C(=O)C4[C@]3(Cc3ccc(Cl)cc3)C2=O)cc1 (some centres undefined)	0.723
CCOC1OC(C(=O)N2CCN(Cc3ccc4c(c3)OCO4)CC2)=CC(C2CCCCC2)C1CCCO (centres undefined)	0.696&0.696
CC(NC(=O)c1[nH]cnc1C(=O)Nc1ccon1)c1ccccc1 (centres undefined)	0.698&0.689
CC1C=C(C(=O)NCc2ccccc2)OC(OCc2ccc(CO)cc2)C1 (centres undefined)	0.671&0.696
CC(C)(O)C1Cc2c(ccc3ccc(=O)oc23)O1 (centres undefined)	0.662
C=CCOC(=O)C1=CC(C2CCCCC2)CC(OCc2ccc(CO)cc2)O1 (centres undefined)	0.625&0.695
O=C(NCc1ccccc1)C1=CC(c2csc3ccccc23)CC(OCc2ccc(CO)cc2)O1 (centres undefined)	0.714&0.72
C=C1CCN(C(Cc2ccccc2)C(=O)NCCC(C)C)S(=O)(=O)c2ccccc21 (centres undefined)	0.706
COc1cc(C=CC(=O)OCC(=O)Nc2c(C)n(C)n(-c3ccccc3)c2=O)ccc1OCC#N	0.717
C#Cc1ccc(C2C=C(C(=O)OCC=C)OC(OCCCCO)C2)cc1 (centres undefined)	0.649&0.676
CC[C@@]12C(=O)N(c3ccccc3)C(=O)N1C(c1ccc(OC)cc1)C1C(=O)N(C(C)(C)C)C(=O)C12 (some centres undefined)	0.695
COC(=O)C1=C(C)N(Cc2ccccc2)C(=NCCCCO)NC1c1cccc(C(F)(F)F)c1 (centres undefined)	0.66
O=S(=O)(N=C(Nc1ccc(F)cc1F)c1ccccc1)c1ccc(Br)cc1	0.742
O=C(CNC(=O)c1[nH]cnc1C(=O)NC(Cc1ccccc1)C(=O)OCc1ccccc1)OCc1ccccc1 (centres undefined)	0.721
COc1ccc(C2CC(=O)C=C(c3cccc(Cl)c3)C2)cc1OC (centres undefined)	0.67
C#CCOCCOCCOCCNc1nc(N2CCN(C(=O)C(CCC(=O)O)n3cc(C(N)Cc4ccc(O)cc4)nn3)CC2)nc(N2CCN(C(=O)C(Cc3cc4ccccc4[nH]3)n3cc(C(N)C(C)CC)nn3)CC2)n1 (centres undefined)	0.706

A draw from above in order of molecular weight, descending:
SMILES	Ecoli growth
CC1COC(=O)C(NC(=O)OCC2c3ccccc3-c3ccccc32)CC=CCC(CC(=O)N(CCO)Cc2ccccc2)C(=O)N1 (centres undefined)	0.677
O=[N+]([O-])c1ccc(CSc2ncnc3c2ncn3C2OC(CO)C(O)C2O)cc1 (centres undefined)	0.681
CCCC(O)=C1C(=O)CCCC1=NCCCCCC(=O)O	0.71

Screening data deposited in PubChem BioAssay by ICCB-Longwood Screening Facility, Harvard Medical School.
